Source: PubChem
HIV TAR-Tat: TAR RNA-Tat peptide displacers, HIV-1, primary screen, biochemical, FRET, FAM/TAMRA-labeled Tat; actives 0.6% (n = 100,000); HIV-1 TAR RNA, Tat peptide displacement FRET; stronger effect = higher value; AID 1259389, 2018; z-score (no concentration beside the values);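 note: score is relative to mean and SD of negative controls; some compounds called inactive have numbers as strong as hits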
CDC25B CDK2 inh: primary biochemical HTRF screen for blockers of M-phase inducer phosphatase 2 binding to CDK2/cyclin A; HTRF CDC25B-CDK2/CyclinA binding, anti-His/anti-Flag; stronger effect = higher value; z-score (concentration not given with the values); actives 0.72% (n = 94,000);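 note: score is relative to mean and SD of negative controls; strong numbers were not always called active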
An asterisk follows results filed as active; nt = no result given.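 Rule for the calls: active = z-score from 3 up in half or more of its runs; inactive = the rest.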

entry	SMILES	HIV TAR-Tat	CDC25B CDK2 inh
1	CC(C)CCC(NC(=O)NC1CCCC1)c1c(-n2cccc2)sc2c1CCN(C)C2 (configuration not stated)	-7.36	nt
2	Cc1c(-c2nc(-c3ccccc3)no2)nnn1-c1ccc(Br)cc1F	1.48	nt
3	Brc1ccc(-c2cnc(/C=C/C=C/N3CCOCC3)s2)cc1	nt	0.51
4	O=C(c1ccco1)N1CCN(Cc2cc(=O)n3nc(-c4ccccc4)sc3n2)CC1	0.75	nt
5	Cc1ccc(C2C3=C(CC(c4ccco4)CC3=O)NC3=C2C(=O)c2ccccc23)cc1 (configuration not stated)	-0.04	-0.66
6	CCC1(C)C(C#N)(C#N)C1(C#N)C#N	nt	-1.03
7	COc1cccc(-c2n[nH]c3c2C(c2cccc(F)c2)NC3=O)c1 (configuration not stated)	-0.83	-0.8
8	Cc1ccc(S(=O)(=O)Nc2cc(C(C)(C)C)sc2C#N)cc1	nt	-2.03
9	CCOC(=O)c1cnc(SCC(=O)Nc2cc(C)c(C)cc2Br)nc1N	2.79	-2.27
10	COc1ccc(C2Nc3c(C)cccc3-c3cc(C)nn32)cc1 (configuration not stated)	2.85	-2.04

Ordered by molecular weight (falling): part of the list above.
entry	SMILES	HIV TAR-Tat	CDC25B CDK2 inh
9	CCOC(=O)c1cnc(SCC(=O)Nc2cc(C)c(C)cc2Br)nc1N	2.79	-2.27
4	O=C(c1ccco1)N1CCN(Cc2cc(=O)n3nc(-c4ccccc4)sc3n2)CC1	0.75	nt
10	COc1ccc(C2Nc3c(C)cccc3-c3cc(C)nn32)cc1 (configuration not stated)	2.85	-2.04

More structures follow.
entry	SMILES	HIV TAR-Tat	CDC25B CDK2 inh
11	NNc1nc2c(c(=O)n1Cc1ccccc1)C1(CCCC1)Cc1ccccc1-2	nt	-1.59
12	O=C(CCN1C(=O)c2ccccc2S1(=O)=O)Nc1ccc2c3c(cccc13)CC2	nt	-2.21
13	Cn1c(SCc2ccc(Cl)cc2)nnc1-c1ccc2c(c1)OCCCO2	1.54	nt
14	N#C/C(=C/Nc1cc(Cl)cc(Cl)c1)c1nc(-c2ccc3c(c2)OCO3)cs1	nt	-2.98
15	COc1cc(/C=C/c2ccccc2)oc(=O)c1	1.14	nt
16	CSc1nc(C)cc(ON=C(C)C)n1	nt	-2.32
17	CC(C)(C)c1ccc(S(=O)(=O)Nc2ccc(-c3nnc(-c4ccccc4)o3)cc2)cc1	1.47	nt
18	c1ccc(-c2cn(-c3ccccc3)c3ncnc(NC4CC4)c23)cc1	-0.42	-1.54
19	O=C(CCCn1sc2ccccc2c1=O)NCCCN1CCc2ccccc2C1	2.45	-1.9
20	COc1ccc(OC)c(NC2c3ccccc3C(=O)N2c2ccccn2)c1 (configuration not stated)	-0.74	1

(further entries)
entry	SMILES	HIV TAR-Tat	CDC25B CDK2 inh
21	Cc1ccc(S(=O)(=O)NCc2nc(-c3ccc(C(C)(C)C)cc3)no2)cc1	1.53	-1.75
22	COc1ccc2cc(-c3ccn[nH]3)ccc2c1	nt	-3.36
23	COCCCNc1nc2c(S(=O)(=O)c3cc(C)ccc3C)nnn2c2ccccc12	-0.24	-0.49
24	CC1=C(C(=O)N2CCN(C)CC2)C2(CCN(S(C)(=O)=O)CC2)OC1=O	-0.12	nt
25	C=Cc1ccc(CSc2ncc(C(=O)OCC)c(N)n2)cc1	-0.12	nt
26	COc1ccc(CN=C(C)C2CCOC2=O)cc1 (configuration not stated)	nt	-2.4
27	CCCCCCC(C)OC(=O)COc1cc(Cl)c(Cl)cc1Cl (configuration not stated)	0.71	nt
28	O=Nc1c(-c2c(O)[nH]c3ccccc23)[nH]c2ccccc12	nt	-0.58
29	O=C(NCc1ccccn1)C1CCN(S(=O)(=O)c2cccc3nonc23)CC1	1.27	nt
30	COc1cc(C(O)c2nc3ccccc3n2C)cc(OC)c1OC (configuration not stated)	nt	-0.24

The listing continues.
entry	SMILES	HIV TAR-Tat	CDC25B CDK2 inh
31	Clc1ccc(-c2cc3ccccn3c2)cc1	-2.69	-1.2
32	O=C(c1cnn(-c2ccc(Cl)cc2)c1C1CCNCC1)N1CCN(C2CCCCC2)CC1	-1.06	nt
33	C=CCN1C(=O)/C(=C\c2ccc(OCCOc3ccc(C)cc3)c(OCC)c2)SC1=S	nt	-5.77
34	CCOC1O[C@@H]2[C@H](O1)[C@@H](CO)O[C@H]2n1cnc2c(N)ncnc21 (some centres not stated)	nt	-0.35
35	Cc1nc2c(C#N)c[nH]n2c(=O)c1Cc1ccccc1	1.98	2.3
36	COc1ccc(S(=O)(=O)Nc2c(C)nc3nc[nH]n3c2=O)cc1	0.19	-1.79
37	O=C(Cc1noc2ccccc12)NCc1ccccn1	1.64	-0.48
38	CCOC(=O)c1sc2ncnc(Oc3cccc(F)c3)c2c1C	1.83	nt
39	O=C(Nc1c(C(=O)N2CCCC2)oc2ccccc12)c1cccc(F)c1	-1.13	nt
40	CCOC(=O)c1[nH]c2ccc(Br)cc2c1C	0.61	0.41

More results.
entry	SMILES	HIV TAR-Tat	CDC25B CDK2 inh
41	COC(=O)CNC(=O)N1CCC2(CC1)Nc1ccccc1-n1cccc12	0.31	nt
42	CC(C)c1ccc(S(=O)(=O)N2CCN(c3cc(-c4ccccc4)ncn3)CC2)cc1	1.58	nt
43	Clc1ccc(/C=N/N2CCCCC2)cc1	nt	-1.33
44	CCSCCOC(=O)C1=C(C)NC2=C(C(=O)CCC2)C1c1ccc(OC(C)=O)c(OC)c1 (configuration not stated)	2.04	-1.9
45	CCn1c2c(c3cc(C)ccc31)CCCC2=O	1.66	-0.58
46	Cc1ccc(CN(c2nc3nc(C)cc(C)n3n2)S(=O)(=O)c2ccc(C)cc2)cc1	-0.01	-1.76
47	CC(=O)Nc1nc(C)c(-c2csc(Nc3ccccn3)n2)s1	-0.21	-1.27
48	O=c1[nH]c2ccccc2cc1-c1noc(-c2cccs2)n1	1.86	-1.66
49	c1ccc(COc2ccccc2CNCc2cccnc2)cc1	-0.48	0.91
50	Cc1ccc(Cl)c2c1NC(=O)C2(O)CC(=O)c1ccc(C(C)(C)C)cc1 (configuration not stated)	nt	0.35

Reformatted: results already given
Second line of a record: HIV TAR-Tat | CDC25B CDK2 inh
44) CCSCCOC(=O)C1=C(C)NC2=C(C(=O)CCC2)C1c1ccc(OC(C)=O)c(OC)c1 (configuration not stated)
  2.04 | -1.9
45) CCn1c2c(c3cc(C)ccc31)CCCC2=O
  1.66 | -0.58
46) Cc1ccc(CN(c2nc3nc(C)cc(C)n3n2)S(=O)(=O)c2ccc(C)cc2)cc1
  -0.01 | -1.76
47) CC(=O)Nc1nc(C)c(-c2csc(Nc3ccccn3)n2)s1
  -0.21 | -1.27
48) O=c1[nH]c2ccccc2cc1-c1noc(-c2cccs2)n1
  1.86 | -1.66

New compounds follow.
entry	SMILES	HIV TAR-Tat	CDC25B CDK2 inh
51	COCCCNC(=O)Cn1cc(C(=O)c2cccs2)c2ccccc21	0.65	-3.46
52	CCc1nnc(NC(=O)Nc2ccc(OC)cc2)s1	nt	-2.45
53	O=c1cc(CSc2ccc(Cl)cc2)[nH]c(=O)[nH]1	nt	-0.9
54	Cc1nc2scc(C)n2c(=O)c1S(=O)(=O)Nc1ccc(CN2CCOCC2)cc1	-0.24	-0.37
55	CSc1cccc(NC(=O)c2cnn(-c3cccc(F)c3)c2-n2cccc2)c1	0.94	nt
56	CC1(C)NC(C(=O)O)Cc2c1[nH]c1ccccc21 (configuration not stated)	0.59	-1.21
57	O=C1CCCC2=C1C(c1cccs1)n1nc(SCc3ccc(F)cc3Cl)nc1N2 (configuration not stated)	nt	-0.11
58	CC(=O)Nc1c(C)nn(C(C)=O)c1C	0.76	-0.08
59	CN(CC(=O)NCCCc1ccco1)c1nnc(N2CCCC2=O)s1	1.1	nt
60	O=c1[nH]c(CN2CCc3ccccc3C2)nc2ccccc12	nt	-0.42

Continued.
entry	SMILES	HIV TAR-Tat	CDC25B CDK2 inh
61	O=c1c2c(-c3ccccc3)csc2nc2c3ccccc3c(NCCO)nn12	nt	-0.69
62	Cc1ccc(-c2noc(CNC(=O)NC3CCCCC3)n2)cc1	0.49	0.39
63	CC(C)Cc1ccc(S(=O)(=O)N2CCN(c3cc(-c4ccccc4)ncn3)CC2)cc1	0.22	nt
64	O=C(CSc1nc2ncccc2[nH]1)Nc1ccc(Br)cc1	nt	-0.81
65	O=C(NCC1CCCO1)C1c2ccccc2C(=O)N(C2CCCC2)C1c1cccs1 (configuration not stated)	0.18	nt
66	CCCCN(C)CC(=O)c1c[nH]c2ccccc12	-0.47	-0.7
67	CC1CCN(C(=O)CSc2nc3c(c(=O)n2C)SCC3)CC1	0.89	-0.99
68	Cc1ccc(S(=O)(=O)OCC(O)CNC2Cc3ccccc3C2)cc1 (configuration not stated)	nt	-1.89
69	CC(=O)n1cc(-c2c(O)c3ccccc3oc2=O)c2ccccc21	nt	-4.05
70	O=S1(=O)C[C@H](N2CCN(c3ccc(F)cc3)CC2)[C@@H](S(=O)(=O)c2ccc(F)cc2)C1	1.51	0.72

Next compounds follow:
entry	SMILES	HIV TAR-Tat	CDC25B CDK2 inh
71	Fc1ccc(-c2nc(-c3ccccc3)no2)cc1	nt	-0.87
72	Cc1nnc(SCC(=O)Nc2ccc(Br)cc2)[nH]c1=O	-0.48	-0.82
73	Cn1c2c(c(=O)n(C)c1=O)C(c1ccc(Br)cc1)C1=C(CCCC1=O)N2 (configuration not stated)	nt	-1.06
74	O=C(CN1C(=O)CSc2ccc(S(=O)(=O)N3CCCC3)cc21)Nc1cc(F)ccc1F	-0.33	nt
75	CC(C)OCCCNC(=O)CCc1nnc2ccc(N3CCCC3)nn12	-1.35	nt
76	CCOC(=O)c1c(S(=O)(=O)NCC(=O)NC2CCCC2)c(C)n(CC)c1C	1.8	nt
77	Cc1ccc(S(=O)(=O)Nc2ccc(C)cc2C)cc1	-0.24	-1.15
78	CCc1nn(CC(=O)NCCCN2CCCCC2CC)c(=O)c2cc3sccc3n12 (configuration not stated)	0.13	-0.18
79	Cc1ccc(C)c(S(=O)(=O)NCCc2csc3nc(-c4ccc(Cl)cc4)nn23)c1	0.37	nt
80	Cc1noc2ncnc(N3CCC(C(=O)NCCN4CCOCC4)CC3)c12	3.36	nt

Carrying on:
entry	SMILES	HIV TAR-Tat	CDC25B CDK2 inh
81	C=CCOc1ccc(C2/C(=C(\O)c3ccc(OC)cc3)C(=O)C(=O)N2Cc2cccnc2)cc1 (configuration not stated)	0.2	-1.33
82	CCOCCCNC(=O)Cn1cc2c(n1)CCCCC2	nt	-3.32
83	Cc1ncc(CO)c2c1Oc1nc(-c3ccc(Cl)cc3)nc(SCC(=O)N3CCOCC3)c1C2	-0.53	nt
84	CC1=CC(C)(C)N(C(=O)NC2CCCCC2)c2cc(C)ccc21	-0.08	-2.26
85	Cc1cc(C(=O)Nc2cccc(COC(=O)c3cc(C)on3)c2)no1	nt	0.52
86	Nc1nc(N2CCCC2)nc(Nc2ccccc2F)c1[N+](=O)[O-]	0.21	nt
87	O=C1C2C(c3ccccc3)OC3(C(=O)c4ccccc4C3=O)C2C(=O)N1c1cccc(F)c1 (configuration not stated)	-0.62	-0.49
88	O=C(Cn1cnc(S(=O)(=O)N2CCCCC2)c1)Nc1ccc(Cl)cn1	0.75	nt
89	CCOc1ccc(S(=O)(=O)n2cc(F)c(=O)[nH]c2=O)cc1	0.76	-1.46
90	O=C(O)c1cccc(Sc2cccc(C(=O)O)c2)c1	nt	-0.8

(listing goes on)
entry	SMILES	HIV TAR-Tat	CDC25B CDK2 inh
91	O=C(OCc1cc(=O)n2nc(-c3cccs3)sc2n1)c1ccccc1Br	1.63	nt
92	COc1ccc(C2CC(=O)N3CN(CCc4ccccc4)CSC3=C2C#N)cc1OC (configuration not stated)	0.76	-1.4
93	CCc1nc2ccccc2n1C(C)C(=O)O (configuration not stated)	0.04	-0.73
94	Cc1csc2ncc(C(=O)Nc3ccc(S(=O)(=O)Nc4nccs4)cc3)c(=O)n12	nt	-4.45
95	O=C(CSc1ncc(S(=O)(=O)c2ccccc2)c(=O)[nH]1)Nc1ccc(F)cc1F	0.36	-2.04
96	O=C(Nc1ccc2c(c1)OCO2)c1ccc(COc2ccc3c(c2)CCC3)o1	-1.44	-0.58
97	CCOC(=O)c1[nH]c(C)c(S(=O)(=O)NC2CCCCNC2=O)c1C (configuration not stated)	nt	-1.24
98	Cc1cc(Nc2ccc3c(c2)OCCO3)n2nc(-c3ccco3)nc2n1	0.63	nt
99	Cc1ccc(C(=O)CC2(O)C(=O)Nc3ccc(Cl)cc32)c(C)c1 (configuration not stated)	nt	-1.55
100	COc1cc2c(cc1OC)CN(S(=O)(=O)c1cccc(S(=O)(=O)N3CCOCC3)c1)CC2	0.46	-1.43

Further entries.
entry	SMILES	HIV TAR-Tat	CDC25B CDK2 inh
101	COc1ccc(-c2ccc(-c3noc(-c4cccc(OC)c4)n3)c(OC)n2)cc1	-0.18	-0.12
102	CCOC(=O)c1c(NC(=O)C(CC)Sc2nc(N)cc(=O)[nH]2)sc2c1CCCC2 (configuration not stated)	nt	-1.92
103	COc1ccc(OC)c2sc(N(CCN(C)C)C(=O)c3nc4ccccc4s3)nc12	0.6	nt
104	CCOC(=O)N1CCC(Nc2c(N3CCN(c4ccccc4F)CC3)c(=O)c2=O)CC1	-0.84	-0.24
105	Cc1cc(C)cc(OCc2cc(=O)n3c(C)csc3n2)c1	-0.19	-2.13
106	CCCCN(CC)CCCNC(=O)c1nn(C)c2c1CS(=O)(=O)c1ccccc1-2	0.44	-0.47
107	O=C(Nc1ccc(Br)cc1)N1CCC(CN2CCc3ccccc3C2)CC1	-4.13	nt
108	CC(C)Cn1c(=O)c2sccc2n2c(CCCC(=O)NCc3ccccn3)nnc12	-0.3	nt
109	CCCOc1ccc(C2C(C#N)=C(N)OC3=C2C(=O)CC(C)(C)C3)cc1 (configuration not stated)	nt	-1.08
110	CC(=O)c1c(C)oc2c1cc(NS(=O)(=O)c1ccc(Cl)c([N+](=O)[O-])c1)c1ccccc12	nt	1.79
111	Cc1ccc(C2CC(=O)C3=C(C2)Nc2ccccc2N(C(=O)C2CC2)C3c2ccco2)cc1 (configuration not stated)	-0.84	0.5
112	CCC1CCCCN1Cc1ccc(CNC(=O)CCc2nnc3ccc(N4CCCCC4)nn23)o1 (configuration not stated)	0.71	nt
